# Rango-impB inh: qHTS Assay for Inhibitors of Rango (Ran-regulated importin-beta cargo) - Importin beta complex formation. Importin subunit beta-1 (Homo sapiens), Q14974. Rango CFP/YFP FRET sensor + importin beta, 45 min. Potency, µM (highest dose often 92.2 µM), inactives show at the top dose inhibition of complex formation. 0.031% of 340,000 active. AID 540263, 2011; active = rising FRET ratio curve, often small or poorly fitted; inconclusive = mostly compound fluorescence or quenching in the first reads; inactive = flat curves in all reads;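 also: potency is read from the fitted curve at half-maximal effect; 0% = DMSO wells and 100% = buffer wells lacking importin beta; nearly all actives have a fitted effect of over 15% in size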
#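 Inhibition scored from the CFP 486 nm/YFP 530 nm FRET ratio 45 min after adding 0.125 microM importin beta to 50 nM Rango biosensor preincubated 5 min with compound (room temperature, PBS with DTT, Tween-20, BSA). No-importin wells as positive control.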
# GLA inh pH 4.5: qHTS Assay for Inhibitors of Human alpha-Galactosidase at pH 4.5; activity change, negative = inhibition, % at 105 µM; 230,000 tested, under 10 active; Alpha-galactosidase A (Homo sapiens), P06280; purified enzyme, 4-MU-alpha-Gal fluorescence, pH 4.5; inconclusive = small, poorly fitted or top-dose-only inhibition, or a rising curve; inactive = flat fitted curve, though single readings scatter; no compound was filed as active;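 also: 0% = full activity with enzyme and -100% = basal without enzyme; dose as in the result columns while the protocol names 77 µM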
# Target sequence (P06280 whole entry, looked up): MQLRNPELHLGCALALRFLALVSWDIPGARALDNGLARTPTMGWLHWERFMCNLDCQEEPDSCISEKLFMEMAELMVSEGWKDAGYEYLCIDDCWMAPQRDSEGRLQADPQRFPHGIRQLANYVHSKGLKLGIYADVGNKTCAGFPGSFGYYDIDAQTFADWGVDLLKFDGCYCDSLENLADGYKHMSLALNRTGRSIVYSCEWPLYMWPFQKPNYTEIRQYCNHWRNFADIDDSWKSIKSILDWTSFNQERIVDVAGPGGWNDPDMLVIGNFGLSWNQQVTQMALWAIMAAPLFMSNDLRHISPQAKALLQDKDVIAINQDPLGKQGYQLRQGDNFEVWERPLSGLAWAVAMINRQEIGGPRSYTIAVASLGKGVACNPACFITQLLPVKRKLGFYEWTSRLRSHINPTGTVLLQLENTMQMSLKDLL
# Rango release inh: qHTS Assay for Inhibitors of RanGTP induced Rango (Ran-regulated importin-beta cargo) - Importin beta complex dissociation | Biochemical FRET Rango-importin beta, RanGTP-induced dissociation | Potency, µM (top dose mostly 46.1 µM), inactives show at the highest dose activity change, negative = inhibition | 0.071% of 340,000 active; active means falling FRET ratio curve, often poorly fitted, with flat reads before Ran was added; inconclusive means other falling curves, or compound fluorescence or quenching; inactive means flat or rising ratio curve;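 also: potency is read from the fitted curve at half-maximal effect; % of control where 0% means no effect; nearly all actives have a fitted effect of over 45% in size; -100% = wells without RanGTP and RCC1; the record marks most hits as doubtful in a second field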
#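 Rango (0.1 uM)–importin beta (0.25 uM) complex; RanGTP-RCC1 trigger; 45 min RT; CFP/YFP FRET read.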
# miR-21 reporter: qHTS Assay for Modulators of miRNAs and/orActivators of miR-21; Potency, µM (series often up to 38.3 µM), for inactives: at the highest dose reporter change, positive = more light; HeLa miR-21 FLuc reporter, luciferase, 48 h; AID 2288, 2010; 340,000 tested, under 10 active; active = well fitted rising curve with a large enough effect; inconclusive = small, poorly fitted or top-dose-only effect; inactive = no such curve, though single readings can be large or run the other way;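 also: % of control where 0% means no effect; miR-21 action dims this reporter so a rising signal means less miR-21 action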
#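 Compounds were titrated across several concentrations (up to approximately 40 uM) and incubated 48 hours with HeLa miR-21-FLuc reporter cells (miR-21 target sequence downstream of FLuc, endogenous miR-21). Readout was firefly luciferase luminescence after lytic detection reagent.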
# The depositor's hits bear a star; ? = inconclusive; / = not tested or not shown; & = joins results of further samples.
SMILES,Rango-impB inh,GLA inh pH 4.5,Rango release inh,miR-21 reporter
CC(=O)SC1CC(=O)C=C2CCC3C4CCC(=O)OC4(C)CCC3C21C (stereo not given),4.0%,/,9.1%,/
CC/C(=N/Nc1ccccc1C)c1cnnc(SC)n1,-8.3%,-1.6,3.4%,-28.0%
CC(C)(CO)NCC(O)Cn1cc(C=O)c2ccccc21 (stereo not given),0.8%,-0.6,8.5%,-6.7%
C=C1C(C(=O)Nc2ccc(OC)cc2)C1C(=O)Nc1ccc(OC)cc1 (stereo not given),0.3%,4.5,-6.5%,-9.4%
CCCC[C@@H]1CNC(=S)N1CCC12CC3CC(CC(C3)C1)C2,3.3%,-3.3,12.5%,1.0%
Cc1ccc(S(N)(=O)=O)cc1NC(=O)C(c1ccccc1)c1ccccc1,-1.5%,/,-14.3%,1.0%
CC(C)=CC(=O)Nc1nnc(C)s1,-3.2%,5.7,-2.7%,-21.5%
Cc1cc(=O)n2c(ccc3ccccc32)c1C#N,?,5.8,?,-2.9%
Cc1ccc(S(=O)(=O)N(C)C)cc1NC(=O)c1sccc1Cl,-0.3%,2.7,-10.1%,-14.1%
COc1cc(C(=O)N[C@H](C(=O)NC2CCCc3ccccc32)C(C)C)cc(OC)c1OC (stereo not given in full),1.7%,/,-7.9%,/
CC(NC(=O)CN(c1ccc(Cl)cc1)S(C)(=O)=O)c1ccccc1 (stereo not given),0.1%,/,-18.2%,-1.2%
COc1ccccc1CNC(=O)CN1C(=O)C(C)N(c2ccc(C)cc2)C1=O (stereo not given),1.6%,-25.1,-8.8%,-8.7%
COc1cccc(NC(=O)CSc2nnc(-c3ccco3)c(-c3ccco3)n2)c1,-2.5%,/,2.2%,0.2%
CN(CC(=O)Nc1cccc(F)c1)C(=O)C1(c2ccccc2)CC1,1.0%,/,-0.4%,/
Cc1ccc(C(O)P(=O)(OCc2ccccc2)c2ccc(N(C)C)cc2)cc1 (stereo not given),-2.8%,-3.4,-14.8%,4.6%

# Two neighbouring records already listed, for reference:
SMILES,Rango-impB inh,GLA inh pH 4.5,Rango release inh,miR-21 reporter
CN(CC(=O)Nc1cccc(F)c1)C(=O)C1(c2ccccc2)CC1,1.0%,/,-0.4%,/
Cc1ccc(C(O)P(=O)(OCc2ccccc2)c2ccc(N(C)C)cc2)cc1 (stereo not given),-2.8%,-3.4,-14.8%,4.6%

# Carrying on:
SMILES,Rango-impB inh,GLA inh pH 4.5,Rango release inh,miR-21 reporter
CCOC(=O)N1CCN(C(=O)Nc2ccc(NC(=O)N3CCN(C(=O)OCC)CC3)cc2)CC1,5.0%,-17.6,1.5%,0.2%
O=C(NCCCN1CCCC1=O)c1ccc2c(c1)NC(=O)c1ccccc1S2,3.7%,1.7,0.5%,-7.4%
CCn1c(C)cc(/C=C2/NC(=O)N(CC(=O)Nc3cccc(C)c3)C2=O)c1C,?,-2.1,-15.6%,-11.5%
Cc1c(C(=O)OCC(=O)NCCN2C(=O)CSC2=O)oc2c1ccc1ccccc12,2.3%,-21.5,3.0%,-26.9%
COC(C)(C)[C@]12CC(O)(c3ccccc3)ON1[C@H]1CCCCC1N2O (stereo not given in full),-2.0%,0.5,5.7%,-6.1%
COc1ccc(OC(=O)c2cccnc2)cc1,-0.2%,14.1,8.6%,-9.9%
CCCCCNC(=O)C(C)NS(=O)(=O)c1ccc(OC)cc1 (stereo not given),-0.8%,16.4,2.8%,-0.8%
COCCNC(=O)C1CCCN(c2ncccn2)C1 (stereo not given),3.1%,0.1,-7.4%,-8.3%
CC(C)(C)c1ccc(CSc2nnc(-c3ccccc3NC(=O)c3ccccc3)o2)cc1,0.1%,0.7,-11.3%,1.8%
O=C(COC(=O)c1ccccc1Br)NCCN1C(=O)CSC1=O,0.2%,-13.1,-7.7%,-34.2%
Cc1noc(N)c1C1(O)C(=O)N(C(C)C)c2ccccc21 (stereo not given),-2.5%,-11.4,-8.9%,9.3%
COc1cc(OC)cc(C(=O)Nn2cc(C(=O)Nc3ccc(F)cc3F)c3ccccc3c2=O)c1,6.2%,-1.9,8.3%,10.3%
CCC(=O)N1CCc2cc(S(=O)(=O)CCC(=O)Nc3ccc(OC)cc3)ccc21,-1.7%,/,-14.7%,-0.5%
O=C(N/N=C\C=C\c1ccc2c(c1)OCO2)C1COc2ccccc2O1 (stereo not given),0.0%,-0.6,-18.2%,-2.9%
CC(=O)NC(=S)Nc1ccc(S(=O)(=O)Nc2ncccn2)cc1,-1.0%,3.1,-8.5%,-13.9%
CCOc1ccc(N2CCCn3c2nc2c3c(=O)n(CCc3ccccc3)c(=O)n2C)cc1,/,8.0,/,-3.5%
Cc1cccc(NC(=S)NC2CC3CCCC(C2)N3Cc2cccs2)c1C (stereo not given),-0.9%,-4.3,2.6%,-7.8%
CCOC(=O)c1c(C)nn(Cc2ccccc2)c1N,0.6%,-5.0,19.4%,-2.1%
COC(=O)c1ccccc1NC(=O)C1CCN(S(C)(=O)=O)CC1,?,-1.9,-14.4%,-3.0%
CCOc1ccc(C(C)=O)cc1CN1C(=O)NC2(CCCCCCC2)C1=O,-3.6%,8.6,1.0%,0.2%
COc1cc(OC)cc(C(=O)NCC(=O)OCC(=O)N2CC(C)CC(C)C2)c1 (stereo not given),-0.4%,2.8,-4.0%,1.6%
O=C(c1ccco1)N1CCN=C1SCc1cccc(Cl)c1,-0.3%,-0.4,-16.3%,-6.3%
c1nnn(C23CC4CC(CC(C4)C2)C3)n1,-1.4%,0.2,0.3%,-1.5%
CC(Oc1cc2oc(=O)c3c(c2cc1Cl)CCC3)C(=O)NCCCN1CCCC1=O (stereo not given),-2.9%,/,-12.1%,4.0%
CC1=NNC(=O)C1CCC(=O)N/N=C/c1ccc(Cl)cc1 (stereo not given),5.3%,-9.0,-1.1%,0.2%
O=C(c1ccc(CN2CCOCC2)cc1)N1CCN(c2ccccc2F)CC1,-3.4%,3.6,-7.3%,-2.6%
O=[N+]([O-])c1ccccc1N=Nc1c(O)[nH]c2ccc(F)cc12,-1.1%,/,0.6%,/
O=C(Oc1cccc(N2C(=O)CCC2=O)c1)c1ccccc1,0.4%,-7.3,22.6%,-0.1%
Cn1c(=O)c2[nH]c(CNc3ccc(C(=O)O)cc3)nc2n(C)c1=O,-0.6%,8.6,-2.9%,1.7%
O=C(NCc1cccnc1)c1ccccc1NS(=O)(=O)c1ccc(F)cc1,-2.3%,/,12.6%,-3.2%

# Just miR-21 reporter, for some of the entries so far:
compound,miR-21 reporter
CC(NC(=O)CN(c1ccc(Cl)cc1)S(C)(=O)=O)c1ccccc1 (stereo not given),-1.2%
COc1ccccc1CNC(=O)CN1C(=O)C(C)N(c2ccc(C)cc2)C1=O (stereo not given),-8.7%

# The listing continues:
SMILES,Rango-impB inh,GLA inh pH 4.5,Rango release inh,miR-21 reporter
O=C(c1ccc(S(=O)(=O)N2CCCC2)cc1)N(c1ccc(F)cc1)C1C=CS(=O)(=O)C1 (stereo not given),-2.7%,/,0.1%,0.3%
Cc1ccc2nc(NNC(=O)c3ccc(S(=O)(=O)N4CCc5ccccc5C4)cc3)sc2c1,1.1%,2.7,-13.4%,10.5%
CN(c1ccccc1)S(=O)(=O)c1ccc(C(=O)NCc2ccco2)cc1,1.0%,/,-5.4%,/
COc1ccc(NC(=O)COc2cccc3c2CCN(Cc2cccnc2)C3=O)cc1,-0.2%,/,-9.6%,-1.9%
CC(C)(C)C(=O)NC(=S)N1CCCC1,-2.3%,9.0,8.0%,0.1%
NS(=O)(=O)c1cccc(NC(=O)c2cccc(S(=O)(=O)N3CCCCCC3)c2)c1,-1.0%,/,-4.4%,/
COc1cc(C=O)ccc1OCCOCCOc1cc(C)ccc1Cl,2.1%,10.1,-1.7%,-11.1%
Cc1cc2c(cc1S(=O)(=O)NCc1ccc(N(C)C)cc1)OCC(=O)N2,-5.7%,/,-1.0%,1.2%&7.4%
COc1ccc(C2N=C(c3ccccc3)C(C)(C)N2O)cc1 (stereo not given),0.8%,9.1,-11.1%,-9.4%
O=C(O)c1cc(-c2ccc(Cl)cc2)n(-c2cccc(Cl)c2)n1,3.4%,/,-5.9%,-9.6%
O=[N+]([O-])c1ccc2c(c1)c(-c1ccccc1)nc1nncn12,-0.3%,-0.6,-4.0%,6.9%
O=C(Nn1cnnc1)c1ccc(Cl)cc1[N+](=O)[O-],-3.1%,/,-22.2%,-1.5%
O=S(=O)(c1ccccc1)N(CC1CO1)c1cc(Cl)ccc1Cl (stereo not given),-0.7%,/,-2.8%,-0.4%
Cc1cc(C(=O)N/N=C/c2ccc(Cl)c([N+](=O)[O-])c2)c(C)n1-c1ccc(F)cc1,-1.2%,-0.7,-11.4%,-21.9%
CCCc1nc2ccc(NC(C)=O)cc2c(=O)n1Cc1ccccc1Cl,11.4%,/,2.8%,-16.7%
COc1ccccc1CCNC(=O)CSc1ccc(-c2ccco2)nn1,-0.5%,1.7,15.4%,0.3%
CSc1n[nH]c(NCc2ccc(Cl)cc2)n1,-5.5%,0.8,12.9%,-18.7%
c1coc(-c2nnc(SCc3cn4ccccc4n3)o2)c1,0.3%,8.2,2.5%,-21.7%
CCN1CCC[C@H]1CNC(=O)c1c(OC)ccc(Br)c1OC,-6.4%,1.1&-5.3,-2.5%,/
O=C(c1cc(-c2cccs2)on1)N1CCc2ccccc2C1,4.2%,-3.0,15.5%,-53.0%
CN(C)c1cccc2c1c(NC(=O)Nc1ccccc1)nn2C,2.0%,-0.9,0.0%,-1.6%
Cc1ccc(C(=O)OCC(=O)NCCc2ccc(F)cc2)cc1S(=O)(=O)N1CCOCC1,-6.4%,/,9.7%,/
CCOC(=O)C1=C(C)NC(C)=C(C(=O)OCC)C1c1ccc(C)o1,0.0%,-8.2,-17.4%,-1.7%
CC(=O)OC(C(=O)NC1CCCCC1)c1cccc(F)c1 (stereo not given),-1.5%,-16.2,1.0%,-2.7%
Cc1cc(C)n2nc(C(=O)OCC(=O)c3ccccc3)nc2n1,5.9%,/,-7.3%,/
Cc1ccccc1NC(=S)N1CCCN(Cc2ccc(F)cc2)C1,1.8%,2.3,16.4%,-2.6%
Cc1c(Cl)c([N+](=O)[O-])nn1Cc1ccc(C(=O)N/N=C\c2cc(Cl)ccc2O)o1,-1.3%,-9.0,-12.7%,10.3%
C=CCSC1=Nc2sccc2C2=NC(=O)CN12,?,1.0,-4.2%,-4.6%
Cc1cc(C)c(S(=O)(=O)NCc2nc3nc(C)cc(C)n3n2)c(C)c1,4.3%,/,-12.2%,2.5%
Cc1cccc2sc(NNC(=O)c3ccc(S(=O)(=O)N4CC(C)CC(C)C4)cc3)nc12 (stereo not given),0.1%,-20.7,?,28.6%
Cc1ccc(C(=O)NCC(=O)OCC(=O)c2ccc3c(c2)OCCO3)cc1C,-0.4%,3.5,5.3%,-14.6%
O=C(Nc1ccc(O)cc1)c1cccc(Oc2ccc([N+](=O)[O-])cc2)c1,1.8%,4.5,0.1%,-0.3%
CC[C@]12CCCN3CCc4c(n(c5ccccc45)C(=O)C1)C32 (stereo not given in full),1.1%,1.0,-11.5%,19.3%
CSc1ccc(CN2CCC(CO)(Cc3ccc(Cl)cc3)CC2)cc1,0.2%,-16.1,-3.9%,1.1%
COc1ccc(/C=C2\SC(=S)N(CCCC(=O)NNC(=O)c3ccccc3O)C2=O)cc1,?,4.6,-2.1%,21.6%
CCCOC(=O)c1[nH]c2c(c1C)C(=O)CC(c1cccs1)C2 (stereo not given),0.5%,3.1,15.0%,?
O=C(CN1CC(c2ccccc2)CC1=O)Nc1ccc2c(c1)OCO2 (stereo not given),2.4%,-7.0,-5.2%,-13.0%
Cc1ccc(S(=O)(=O)N(C)C)cc1NC(=O)COC(=O)CNC(=O)C12CC3CC(CC(C3)C1)C2,-2.4%,/,3.8%,/
CCCCn1c(N)c(N(CCOC)C(=O)c2c(-c3ccccc3)noc2C)c(=O)[nH]c1=O,1.7%,/,23.1%,/
CCCCCCCCCC[N+](C)(C)CC/C=C1/c2ccccc2Sc2ccc(Cl)cc21,1.9%,/,31.9%,?
CCOC(=O)c1oc2c(CN3CCN(C)CC3)c(O)ccc2c(=O)c1-c1ccc(Br)cc1,0.6%,2.2,2.3%,-6.7%

# Compound activity from PubChem BioAssay.

# This is a subset; the hit share may differ from the screen's.
